From PubChem
AF4-AF9 inh: inhibitors of AF4 peptide binding to AF9, primary screen, biochemical, AlphaScreen, biotin-AF4 peptide, FLAG-AF9, single point; inhibition, % at 10 µM; Protein AF-9 (Homo sapiens), P42568; 0.47% of 350,000 active; AID 651704, 2012;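 active = every replicate reaching a set inhibition limit, whatever the replicate mean, cut at about 25% in these data; inconclusive = mean inhibition reaches that limit but some replicates miss it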;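 note: 0% = plate neutral control median and 100% = total signal loss; the record names both 10 and 1 µM as test concentration; the first replicate is given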
Target sequence (P42568 whole entry, looked up): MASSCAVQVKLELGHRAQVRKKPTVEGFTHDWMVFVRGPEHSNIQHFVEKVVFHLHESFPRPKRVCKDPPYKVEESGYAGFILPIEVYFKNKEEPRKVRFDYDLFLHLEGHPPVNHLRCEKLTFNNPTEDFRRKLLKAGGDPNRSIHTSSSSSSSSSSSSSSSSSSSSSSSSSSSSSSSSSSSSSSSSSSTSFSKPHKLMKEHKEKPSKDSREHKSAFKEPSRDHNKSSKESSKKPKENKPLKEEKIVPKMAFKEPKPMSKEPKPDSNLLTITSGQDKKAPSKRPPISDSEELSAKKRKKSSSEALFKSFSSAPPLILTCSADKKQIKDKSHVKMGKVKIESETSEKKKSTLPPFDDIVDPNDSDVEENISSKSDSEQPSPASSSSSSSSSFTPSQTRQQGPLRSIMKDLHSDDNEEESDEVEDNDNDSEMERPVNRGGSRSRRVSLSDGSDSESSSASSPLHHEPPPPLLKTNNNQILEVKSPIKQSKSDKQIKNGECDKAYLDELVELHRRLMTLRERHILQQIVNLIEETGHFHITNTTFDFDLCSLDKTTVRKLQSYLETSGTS
Bfl-1 A1 inh: caspase 3/7 activation in MEF A1-2A-BIM cells, primary screen, A1 inhibitor project, cell-based, luminescence, HTS | Caspase-Glo 3/7 luminescence, 3 h; percent of clofoctol response, vehicle zero | caspase activation, % (concentration not given with the values) | 0.066% of 330,000 active | AID 2462, 2010;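 active = over half of replicate activation scores above 10%, or exactly half above 10 with the replicate mean above 10; inconclusive = replicate mean below 10 yet half the replicates above 10; inactive = over half of replicates below 10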;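 note: wells of about 30 µL received 50 nL stock; many hits fall short of the cut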
Beta cell apopt: inhibitors of cytokine-induced beta cell apoptosis, primary screen, luminescence | INS-1E cytokine-induced death, ATP luminescence, 48 h; percent of positive-control rescue, neutral wells zero | 0.8% of 300,000 active | protection from apoptosis, % (no concentration beside the values);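 active = all replicates at 75% or more, or half of them and the mean; inconclusive = half reach 75% but not the mean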;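 note: 0% = cytokine-treated negative control wells and 100% = positive control rescue; higher means more ATP so stronger rescue from cytokine killing; wells of about 40 µL received 100 nL stock; the first replicate is given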
Vif A3G: inhibitors of Vif binding to APOBEC3G peptide, primary screen, biochemical, TR-FRET, GST-Vif 1-94, biotin-A3G peptide, dose response retest (AID 1117319) | Virion infectivity factor (Human immunodeficiency virus type 1 group M subtype B (isolate … | TR-FRET GST-Vif / biotin-A3G peptide binding; higher % means a stronger effect; test concentration not given here; strong numbers were not always called active | inhibition, %, or IC50 in µM where a hit was titrated | 0.57% of 260,000 active;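 active = above the screen mean plus three standard deviations and confirmed in dose response; inconclusive = results disagree or hit not tested in dose response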;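 note: Vif residues 1-94 fused to GST binding biotinylated APOBEC3G peptide 110-148; 0% = full assay without inhibitor and 100% = GST in place of GST-Vif; retest series ran down from 100 µM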
Calb FLC: C. albicans growth inhibition with fluconazole, primary screen, CaCi-2 strain, Alamar Blue fluorescence; C. albicans CaCi-2 (fluconazole-resistant clinical isolate) + fluconazole, 48 h; growth inhibition, % (concentration not given with the values); 0.57% of 300,000 active;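 active = most replicates above 75%; inconclusive = exactly half above 75%; inactive = most below 75%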;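 note: all wells also contain fluconazole at 8 µg/ml as a sub-toxic cotreatment; 0% = median of DMSO wells and 100% = median of geldanamycin control wells; wells of about 8 µL received 7.5 nL stock; the first replicate is given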
RanGTP-Impb inh: inhibitors of RanGTP-importin-beta interaction, primary screen, biochemical, FRET, CFP-Ran, YFP-importin-beta, homogeneous; Ran GTPase (GTP-bound) - importin-beta complex; inhibition, % (no concentration beside the values); AID 2216, 2009; 1.1% of 300,000 active; cell-free CFP-Ran/YFP-importin-beta FRET ratio;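 active = most replicates above 15%; inconclusive = exactly half above 15%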;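 note: 0% = DMSO wells and 100% = Ran loaded with GDP instead of GTP; wells of about 40 µL received 100 nL stock; the first replicate is given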
T cruzi inh: inhibitors of intracellular T. cruzi growth, primary screen, luminescence, NIH3T3 host cells; 1.4% of 300,000 active; T. cruzi beta-gal in NIH3T3, 90 h; AID 1885, 2009; inhibition, % (test concentration not listed);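 active = mean inhibition across valid replicates above about 55%, limit read from the data; inconclusive = mean below that limit but half or more replicates reach it; inactive = mean below it, under half of replicates reach it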;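 note: signal also drops with host cell toxicity which is not excluded here; 0% = plate median of DMSO wells and 100% = zero luminescence signal; higher percent means less beta-gal luminescence so fewer parasites; stock transfer was 50 nL into about 50 µL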
Ecoli rRNA inh: reduced GFP signal of wild-type E. coli, primary screen, bacterial rRNA inhibitor project, GFP/RFP fluorescence, OD600, single point; E. coli WT GFP vs humanized-ribosome RFP mutants, 24 h; stronger effect = lower value; DMSO median 0, no signal -100; GFP signal change (wild-type ribosome), % (concentration not given with the values); 1.6% of 350,000 active; AID 720706, 2013;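 active = significant combined selectivity score with lowered wild-type GFP, culture density cut under 30%, mutant RFP and density less affected; inactive = any of these conditions unmet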; note: one replicate is shown; some compounds called inactive have numbers as strong as hits
Ecoli rRNA inh OD600: further read-out of Ecoli rRNA inh, marked with its call; OD600 change, %; measured here: OD600 growth;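 optical density of the mix in the first replicate; 0 = DMSO median and -100 = no signal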
Ecoli rRNA inh RFP: recorded beside Ecoli rRNA inh, whose call it bears; RFP signal change, %; measured here: RFP humanized mutant strains;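 first replicate; 0 = DMSO median and -100 = no signal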
Starred values were filed as active, the others as inactive. Not all compounds are listed; rates above refer to the full screens.

Results for O=C1Nc2ccc(Br)cc2C1(O)Cc1ccncc1 (centres undefined) ?
Bfl-1 A1 inh: 0.4; Beta cell apopt: 5; Vif A3G: -5%; Calb FLC: 13; RanGTP-Impb inh: 1.4; T cruzi inh: -24

How did O=C(CSc1nnc2sc3ccccc3n12)NCc1ccc2c(c1)OCO2 do in these assays?
AF4-AF9 inh: -3.7; Bfl-1 A1 inh: -0.9; Beta cell apopt: -7; Calb FLC: -3; RanGTP-Impb inh: -3.7; T cruzi inh: 2; Ecoli rRNA inh: -3; Ecoli rRNA inh OD600: -11; Ecoli rRNA inh RFP: 5.2

Results for Cc1c(NS(=O)(=O)c2cccc(C(=O)N3CCC(C(N)=O)CC3)c2)c(=O)n(-c2ccccc2)n1C ?
AF4-AF9 inh: -4.5; Bfl-1 A1 inh: -1.5; Beta cell apopt: 2; Vif A3G: -1%; Ecoli rRNA inh: 15; Ecoli rRNA inh OD600: 19; Ecoli rRNA inh RFP: 0.8

How did Cc1cc(Cn2nc(-c3ccccc3)cc2C(=O)NCc2cccc(C(F)(F)F)c2)on1 do in these assays?
AF4-AF9 inh: 4.6; Bfl-1 A1 inh: 1.1; Beta cell apopt: 4; Calb FLC: -8; RanGTP-Impb inh: 1.0; T cruzi inh: -2; Ecoli rRNA inh: 5; Ecoli rRNA inh OD600: 16; Ecoli rRNA inh RFP: 0.0

Results for COc1ccc(Nc2nccc(N(C)C)c2C#N)cc1 ?
AF4-AF9 inh: -1.2; Bfl-1 A1 inh: -0.8; Beta cell apopt: -1; Vif A3G: -7%; Calb FLC: -15; RanGTP-Impb inh: -2.9; T cruzi inh: -20; Ecoli rRNA inh: 4; Ecoli rRNA inh OD600: -1; Ecoli rRNA inh RFP: 1.3

What do the screens show for `Cc1cc(C(=O)Nc2sc3c(c2C#N)CCC3)no1`?
Bfl-1 A1 inh: -3.1; Beta cell apopt: 6; Vif A3G: 23%; Calb FLC: inconclusive; RanGTP-Impb inh: 8.9; T cruzi inh: -29

What do the screens show for `COc1ccc(CN(C)C2CCCCC2)c(C)c1C`?
Bfl-1 A1 inh: 0.3; Beta cell apopt: 0; Vif A3G: -2%; Calb FLC: 0; RanGTP-Impb inh: -0.3; T cruzi inh: -27

What do the screens show for `O=c1cc(-c2ccc(O)cc2)oc2c(O)c(O)c(O)c(O)c12`?
AF4-AF9 inh: -3.4; Bfl-1 A1 inh: 1.2; Beta cell apopt: -4; Vif A3G: 22µM*; Ecoli rRNA inh: 7; Ecoli rRNA inh OD600: 10; Ecoli rRNA inh RFP: -4.9

Results for CC(C)CC(=O)N/C(N)=N/c1nc2ccccc2o1 ?
AF4-AF9 inh: 1.6; Bfl-1 A1 inh: -0.8; Beta cell apopt: -4; Calb FLC: 7; RanGTP-Impb inh: 1.1; T cruzi inh: -8; Ecoli rRNA inh: -4; Ecoli rRNA inh OD600: 0; Ecoli rRNA inh RFP: -2.1

What do the screens show for `Cc1cccn2c(=O)c(C=O)c(N3CCN(C)CC3)nc12`?
AF4-AF9 inh: -3.1; Bfl-1 A1 inh: 0.1; Vif A3G: -3%; Calb FLC: 0; RanGTP-Impb inh: -54; T cruzi inh: 5; Ecoli rRNA inh: 23; Ecoli rRNA inh OD600: 5; Ecoli rRNA inh RFP: 6.2

How did Cc1ccc(N(CCC#N)C(=O)COC(=O)C2CCN(S(=O)(=O)c3ccc(C)c(C)c3)CC2)cc1 do in these assays?
AF4-AF9 inh: 2.5; Bfl-1 A1 inh: -0.1; Beta cell apopt: -5; Vif A3G: -4%; Calb FLC: -17; RanGTP-Impb inh: -2.9; T cruzi inh: -9; Ecoli rRNA inh: 3; Ecoli rRNA inh OD600: 1; Ecoli rRNA inh RFP: 4.6

How did c1cnc(SCCOc2cccc3ccccc23)nc1 do in these assays?
Bfl-1 A1 inh: -0.2; Beta cell apopt: -5; Vif A3G: 1%; Calb FLC: 36; RanGTP-Impb inh: -3.0; T cruzi inh: 4

Continued, starting with the last 2 of the part before.
How did Cc1ccc(N(CCC#N)C(=O)COC(=O)C2CCN(S(=O)(=O)c3ccc(C)c(C)c3)CC2)cc1 do in these assays?
AF4-AF9 inh: 2.5; Bfl-1 A1 inh: -0.1; Beta cell apopt: -5; Vif A3G: -4%; Calb FLC: -17; RanGTP-Impb inh: -2.9; T cruzi inh: -9; Ecoli rRNA inh: 3; Ecoli rRNA inh OD600: 1; Ecoli rRNA inh RFP: 4.6

How did c1cnc(SCCOc2cccc3ccccc23)nc1 do in these assays?
Bfl-1 A1 inh: -0.2; Beta cell apopt: -5; Vif A3G: 1%; Calb FLC: 36; RanGTP-Impb inh: -3.0; T cruzi inh: 4

How did CCOc1ccc(S(=O)(=O)N2CCN(C(=O)CCOc3ccccc3C)CC2)cc1 do in these assays?
AF4-AF9 inh: -1.3; Bfl-1 A1 inh: 0.4; Beta cell apopt: 1; Vif A3G: -4%; Calb FLC: -4; RanGTP-Impb inh: -2.0; T cruzi inh: 13; Ecoli rRNA inh: -6; Ecoli rRNA inh OD600: -10; Ecoli rRNA inh RFP: 0.9

What do the screens show for `CC(OC(=O)C1CCN(c2ccc(C(F)(F)F)cn2)CC1)C(=O)NC1CCCCC1C` (centres undefined)?
AF4-AF9 inh: -1.8; Bfl-1 A1 inh: 0.3; Beta cell apopt: 1; Vif A3G: -15%; Ecoli rRNA inh: 0; Ecoli rRNA inh OD600: -1; Ecoli rRNA inh RFP: 0.7

What do the screens show for `CCOC(=O)C1=C(C)N(c2ccc(OC)cc2)C(=O)/C1=C\c1ccc(O)c(OCC)c1`?
AF4-AF9 inh: -2.3; Bfl-1 A1 inh: -0.3; Beta cell apopt: 2; Vif A3G: inconclusive; Calb FLC: 17; RanGTP-Impb inh: -12; T cruzi inh: 0; Ecoli rRNA inh: 7; Ecoli rRNA inh OD600: 17; Ecoli rRNA inh RFP: 11

What do the screens show for `CCOC(=O)CC1(c2ccc(OC)c(OC)c2)C(=O)c2ccccc2C1=O`?
AF4-AF9 inh: -3.0; Bfl-1 A1 inh: 0.2; Beta cell apopt: -6; Vif A3G: -3%; Calb FLC: -1; RanGTP-Impb inh: -1.8; T cruzi inh: -20; Ecoli rRNA inh: -27*; Ecoli rRNA inh OD600: -15*; Ecoli rRNA inh RFP: 4.2*

Results for CC(C)(C)c1ccc(OCc2nc(-c3ccccn3)no2)c(Br)c1 ?
Bfl-1 A1 inh: -1.3; Beta cell apopt: -5; Vif A3G: inconclusive; Calb FLC: 36; RanGTP-Impb inh: 0.3; T cruzi inh: 30

Results for CC(C)NC(=O)CC(=O)N/N=C/c1cccs1 ?
AF4-AF9 inh: -3.4; Bfl-1 A1 inh: 2.1; Beta cell apopt: 5; Calb FLC: 4; RanGTP-Impb inh: 0.7; T cruzi inh: -8; Ecoli rRNA inh: 13; Ecoli rRNA inh OD600: 18; Ecoli rRNA inh RFP: 1.8

What do the screens show for `COC(=O)C(NC(=O)c1ccccc1)(Nc1nccs1)C(F)(F)F` (centres undefined)?
Bfl-1 A1 inh: -0.6; Beta cell apopt: 0; Vif A3G: 8%; Calb FLC: 3; RanGTP-Impb inh: 3.5; T cruzi inh: -13

How did CNc1nc(N)c([N+](=O)[O-])c(NCC2CCCO2)n1 (centres undefined) do in these assays?
AF4-AF9 inh: -7.2; Bfl-1 A1 inh: 0.6; Beta cell apopt: 0; Calb FLC: 0; RanGTP-Impb inh: 0.1; T cruzi inh: -37; Ecoli rRNA inh: 1; Ecoli rRNA inh OD600: 10; Ecoli rRNA inh RFP: 5.5

Results for CCCn1c(C)nc2c(c1=O)c1nc3ccccc3nc1n2CCC1=CCCCC1 ?
Bfl-1 A1 inh: -0.6; Beta cell apopt: 5; Vif A3G: 21%; Calb FLC: inconclusive; RanGTP-Impb inh: 1.4; T cruzi inh: 52

What do the screens show for `NCCCNC(=O)Cn1c(=O)c2c3c(sc2n(Cc2ccccc2)c1=O)CCCC3`?
AF4-AF9 inh: 2.6; Bfl-1 A1 inh: 1.8; Beta cell apopt: -1; Vif A3G: -1%; Calb FLC: -3; RanGTP-Impb inh: 0.8; T cruzi inh: 3; Ecoli rRNA inh: 0; Ecoli rRNA inh OD600: 5; Ecoli rRNA inh RFP: -11

What do the screens show for `COc1ccc(C(=O)OCC(=O)Nc2c(C)cccc2C)c(OC)c1OC`?
AF4-AF9 inh: -4.3; Bfl-1 A1 inh: -0.7; Calb FLC: 3; RanGTP-Impb inh: 1.6; T cruzi inh: -7; Ecoli rRNA inh: 4; Ecoli rRNA inh OD600: 4; Ecoli rRNA inh RFP: -4.5

What do the screens show for `O=C(NCC1CCCO1)c1nn2c(C(F)(F)F)cc(-c3cccs3)nc2c1Br` (centres undefined)?
AF4-AF9 inh: -1.2; Bfl-1 A1 inh: -0.1; Beta cell apopt: 8; Vif A3G: 0%; Calb FLC: 19; RanGTP-Impb inh: -1.3; T cruzi inh: 7; Ecoli rRNA inh: 1; Ecoli rRNA inh OD600: 6; Ecoli rRNA inh RFP: 1.6

What do the screens show for `CC(C)(C)c1ccc(CN2C(=O)CSC2=O)cc1`?
AF4-AF9 inh: 3.2; Bfl-1 A1 inh: 0.6; Beta cell apopt: 5; Vif A3G: -10%; Calb FLC: -19; RanGTP-Impb inh: inconclusive; T cruzi inh: 12; Ecoli rRNA inh: 3; Ecoli rRNA inh OD600: 2; Ecoli rRNA inh RFP: -0.7

What do the screens show for `CC(C)(C)OC(=O)NCc1ccc(CNC(=O)c2nc[nH]c2C(=O)NCc2ccc(CNC(=O)OC(C)(C)C)cc2)cc1`?
AF4-AF9 inh: -65; Bfl-1 A1 inh: -1.3; Beta cell apopt: 48; Ecoli rRNA inh: 10; Ecoli rRNA inh OD600: 6; Ecoli rRNA inh RFP: -0.1

How did O=C(COC(=O)c1ccc(S(=O)(=O)NCc2ccco2)cc1)NC1CCCCCC1 do in these assays?
Bfl-1 A1 inh: 0.0; Beta cell apopt: 5; Vif A3G: 8%; Calb FLC: -1; RanGTP-Impb inh: 0.7; T cruzi inh: -41; Ecoli rRNA inh: 3; Ecoli rRNA inh OD600: 6; Ecoli rRNA inh RFP: 4.2

What do the screens show for `CNC(=S)N/N=C1\C(=O)c2cccc3cccc1c23`?
Bfl-1 A1 inh: -1.7; Beta cell apopt: 6; Vif A3G: 4%; Calb FLC: -1; RanGTP-Impb inh: 1.8; T cruzi inh: 47

Results for COC(=O)C1(S(=O)(=O)c2cccc3nsnc23)CC1 ?
Bfl-1 A1 inh: 0.0; Beta cell apopt: -6; Vif A3G: 13%; Calb FLC: 7; RanGTP-Impb inh: 2.0; T cruzi inh: -7
